Screening results from PubChem BioAssay.
AID504770 = E. coli YBA685 growth inhibition, screen for V. cholerae RctB inhibitors; E. coli YBA685 rctB-dependent plasmid, OD600 growth, 3 h; active compounds read low; z-score (test concentration not listed); 0.27% of 130,000 active; AID 504770;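 active = z-score under -2 on both plates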;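 note: wells of about 30 µL received 100 nL stock; score is relative to mean and SD of the test wells; the first replicate is given; strong numbers were not always called active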
Ba CapD inh = blocks the Bacillus anthracis CapD enzyme; purified CapD enzyme, fluorescence intensity read-out; active compounds read low; some hits fall short of the stated cut; z-score (no concentration beside the values); 0.23% of 140,000 active;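 active = z-score under -4 in either of two replicates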;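 note: stock transfer was 100 nL into about 40 µL; score is relative to mean and spread of the plate; one replicate is shown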
Starred values were filed as active, the others as inactive; / = not tested or not shown; & = joins results of further samples.

Sample of the layout:
SMILES | AID504770 | Ba CapD inh
CCCCn1c(CO)cnc1S(=O)(=O)CC1CCC1 | -0.6 | -0.445
O=C(NCCCc1ccccc1)c1cc2c(s1)CS(=O)(=O)C2 | 0.45 | 0.39
CCN1/C(=C2\C(=O)N(C)C(=S)N2c2ccccc2)C=Cc2cc(C)ccc21 | -0.35 | -0.035
O=C(NCc1cccs1)c1csc(C2COc3ccccc3O2)n1 (stereo not drawn) | 0.9 | -0.195
Cc1cccc(NC(N)=S)c1 | -0.85 | 0.11
N#CCCn1[nH]c(-c2ccccc2)cc1=O | 0.75 | -0.075&0.245
Cn1c(SCc2cccnc2)nnc1C1CCCN(C(=O)C2CCCO2)C1 (stereo not drawn) | -0.5 | /
CCCN(CCC)S(=O)(=O)c1ncn[nH]1 | -0.65 | -0.655
O=S1(=O)C=C(SCc2ccc(Cl)c(Cl)c2)Nc2ccccc21 | / | -0.59
CC(O)(CS(=O)(=O)Cc1ccc(Cl)cc1)c1ccc(Cl)cc1 (stereo not drawn) | / | -0.66
Cc1noc(C)c1CSc1ncccc1C(=O)Nc1ccnn1C1CCN(C)CC1 | -1.95 | /
C/C(CCC1CC(C)OC1=O)=N\NC(N)=O (stereo not drawn) | -0.8 | 0.13
O=c1ccn2c(n1)OC1C(O)C(CO)OC12 (stereo not drawn) | -0.15 | /
Cc1sc(NC(=O)c2ccccc2)c(C(=O)N2CCCCC2)c1C | 0.5 | -0.28
CCCCCCCNC(=O)c1ccc2c(c1)ncn2-c1cc(OC)c(OC)c(OC)c1 | / | 0.46

Results, from the start:
SMILES | AID504770 | Ba CapD inh
CCCCn1c(CO)cnc1S(=O)(=O)CC1CCC1 | -0.6 | -0.445
O=C(NCCCc1ccccc1)c1cc2c(s1)CS(=O)(=O)C2 | 0.45 | 0.39
CCN1/C(=C2\C(=O)N(C)C(=S)N2c2ccccc2)C=Cc2cc(C)ccc21 | -0.35 | -0.035
O=C(NCc1cccs1)c1csc(C2COc3ccccc3O2)n1 (stereo not drawn) | 0.9 | -0.195
Cc1cccc(NC(N)=S)c1 | -0.85 | 0.11
N#CCCn1[nH]c(-c2ccccc2)cc1=O | 0.75 | -0.075&0.245
Cn1c(SCc2cccnc2)nnc1C1CCCN(C(=O)C2CCCO2)C1 (stereo not drawn) | -0.5 | /
CCCN(CCC)S(=O)(=O)c1ncn[nH]1 | -0.65 | -0.655
O=S1(=O)C=C(SCc2ccc(Cl)c(Cl)c2)Nc2ccccc21 | / | -0.59
CC(O)(CS(=O)(=O)Cc1ccc(Cl)cc1)c1ccc(Cl)cc1 (stereo not drawn) | / | -0.66
Cc1noc(C)c1CSc1ncccc1C(=O)Nc1ccnn1C1CCN(C)CC1 | -1.95 | /
C/C(CCC1CC(C)OC1=O)=N\NC(N)=O (stereo not drawn) | -0.8 | 0.13
O=c1ccn2c(n1)OC1C(O)C(CO)OC12 (stereo not drawn) | -0.15 | /
Cc1sc(NC(=O)c2ccccc2)c(C(=O)N2CCCCC2)c1C | 0.5 | -0.28
CCCCCCCNC(=O)c1ccc2c(c1)ncn2-c1cc(OC)c(OC)c(OC)c1 | / | 0.46
CCN(CC)C(=O)CSc1[nH]c2ccccc2c(=O)c1C(=O)OC | -0.4 | 0.16
Fc1ccc2c(c1)c1nc3ccccc3nc1n2Cc1cc(Cl)cc2c1OCOC2 | / | 3.89
COCCn1cc(C(=O)c2cc(F)ccc2OCC(=O)Nc2cc(C)on2)cc(C#N)c1=O | -0.05 | /
COC(=O)c1c(SC)nc(-c2ccccc2)[nH]c1=O | / | -0.025
CC(C)c1n[nH]c(=S)n1C | -0.15 | /
CN1CCN(C(CC(=O)Nc2ccc(Oc3ccccc3)cc2)C(=O)O)CC1 (stereo not drawn) | -0.1 | /
COc1ccccc1/C=C/C(=O)NCCc1ccccn1 | -0.85 | /
c1ccc(-c2cnc[nH]2)cc1 | 0.15 | /
O=C(NCc1ccco1)c1cc2nc3c(c(C(F)(F)F)n2n1)CCc1ccccc1-3 | 0.55 | 0.72
Cc1ccc(N)c(C(=O)O)c1Br | -0.95 | -0.975
O=C(NC1CCCc2ccccc21)c1ccc2c(c1)OCO2 (stereo not drawn) | -0.4 | -0.265
FC(F)(F)COc1ccc(-c2nnc(SCc3ccccc3)o2)cn1 | -0.95 | -0.46
CC1=C(C(=O)OCc2ccccc2)C2(C(=O)Nc3ccccc32)C(C#N)=C(N)O1 (stereo not drawn) | / | -0.405
CCOc1cc(C2C(C(=O)N3CCCCC3)=C(C)NC3=C2C(=O)CCC3)ccc1OC(C)=O (stereo not drawn) | 0.9 | 29.2
Nc1cccc2nonc12 | -1.15 | -2.51

Whole records, looked up by structure. Order of screens: AID504770	Ba CapD inh
Results for Cn1c(SCc2cccnc2)nnc1C1CCCN(C(=O)C2CCCO2)C1 (stereo not drawn) → -0.5	/
Results for Nc1cccc2nonc12 → -1.15	-2.51

Next structures
SMILES | AID504770 | Ba CapD inh
Cc1noc(C)c1CN(C(=S)NC(C)C)c1ccccc1 | 0.3 | /
CCOC(=O)c1sc2nc(C)cc(C)c2c1NC(=O)c1cccs1 | 2.4 | /
OC(CNCc1ccc(Cl)cc1)(c1ccc(F)cc1)c1ccc(F)cc1 | / | -0.55
O=C(CSc1nnc(CNc2cccc(Cl)c2)o1)Nc1cccc(Cl)c1 | -0.4 | /
O=S(=O)(Nc1ccccc1C(F)(F)F)c1cccs1 | 0.4 | 1.24
Cn1c(=O)cc(Sc2ccccc2)n(Cc2ccccc2)c1=O | / | -0.505
CC(C)C(NS(=O)(=O)c1cccc2nsnc12)C(=O)NC1CCCC(C)C1C (stereo not drawn) | 0.05 | 0.625
CCOC(=O)C1=CN(Cc2ccc(OC)c(OC)c2)C=C(C(=O)OCC)C1c1cc2c(cc1Br)OCO2 | / | 4.42
O=C(Nc1ccc2c(c1)CCC2)c1cc(-c2ccncc2)nc2ccccc12 | / | -0.98
CSc1nc2ccccc2n(C)c1=O | -0.6 | /
O=C(NC1CC1)c1cc2ccccc2oc1=O | -0.4 | 0.45
Cc1ccc(OC(=O)C2COc3ccccc3O2)cc1C (stereo not drawn) | -0.1 | /
O=C(CC1(O)C(=O)Nc2ccccc21)c1ccco1 (stereo not drawn) | / | -0.07
N#CC1=C(N)C(C#N)(C#N)C(c2ccc(Br)cc2)C2CN(Cc3ccccc3)CC=C12 (stereo not drawn) | / | 0.405
CCOC(=O)c1c(C)nc2c(c1-c1ccc(OC)cc1)C(=O)CC(C)(C)C2 | / | -0.1
COc1ccc(-c2nnc(SCC(=O)N(C)C)n2N)cc1OC | -0.95 | /
Cc1c(S(=O)(=O)c2ccccn2)c(N)n(Cc2ccccc2Cl)c1C | -0.15 | 0.285
Cc1cc(C(=O)Nc2ccc(C(C)C)cc2)n(-c2ccccc2)n1 | 0.05 | 0.905
C1=Nn2c(nnc2-c2ccncc2)SC(c2ccccc2)=C1 | -0.05 | /
Oc1c(C(c2cccs2)N2CCN(c3ccccc3)CC2)sc2ncnn12 (stereo not drawn) | -0.15 | /
O=S(=O)(c1ccccc1)c1cnn(-c2ccccc2)c1-c1ccc(Cl)cc1 | / | -0.19
C=CCNC(=O)c1cc2c(n(-c3ccccc3)c1=O)CC(C)(C)CC2=O | / | 2.1
Cc1ccc(C2CC(c3ccccc3C)n3nc(N)nc3N2)cc1 (stereo not drawn) | -0.35 | 72.3
COc1ccc(NC(=O)c2c(NC(=O)c3ccncc3)sc3c2CCCCC3)cc1 | / | 0.52
N#Cc1cc(-c2cccc(C(F)(F)F)c2)cnc1Oc1ccccc1Cl | / | 0.005
O=C1NCCN1CCNC(=S)NC1CC1 | -0.15 | 0.905
CCc1ccc2nc(N)sc2c1 | 1.15 | -1.98
CCC(C)COC(=O)c1ccc(C(=O)O)cc1 (stereo not drawn) | 0.1 | 0.605
CSc1ccc(CNCCCn2ccnc2)cc1 | 0.3 | /
CCOC(=O)Cn1ccc(C(F)(F)F)n1 | 0.3 | -0.12
CC(C)Cn1c2ccc(Br)cc2c2nc3ccccc3nc21 | -2.1 | -0.165
CC1=CC(=O)C=C(C)C1=NS(=O)(=O)c1ccccc1 | 2.05 | 66.6
CN1C(=O)/C(=C\c2coc3ccccc3c2=O)c2ccccc21 | 0.85 | /
NNC(=O)CCn1c(-c2ccccc2)c(-c2ccccc2)c2ccccc21 | 0.4 | -0.155
Cc1sc(-c2ccncc2)nc1OC(=O)c1ccc(Cl)c(Cl)c1 | / | -0.045
CC1(C)CC(=O)C=C(Nc2ccc(Br)cn2)C1 | 0.1 | -2.29
O=C(Oc1ccc2c(c1)OCO2)c1cc2c(s1)CCCC2 | -0.45 | /
COc1cc(OC)nc(CSc2ccc(NC(=O)CCl)cc2)n1 | / | -0.575
COc1ccc(O)c(C(=O)c2cc(C#N)c(=O)n(CCN3CCOCC3)c2)c1 | 1.45 | /
CCCSc1nnc(Cn2c(=O)sc3ccccc32)n1CCc1ccccc1 | -0.75 | 0.135
CCc1ccc2[nH]c(=O)c(C(c3nnnn3C(C)(C)C)N3CCCCC3)cc2c1 (stereo not drawn) | 0.85 | /
O=C1c2cc(OCCN3CCOCC3)ccc2-c2ccc(OCCN3CCOCC3)cc21 | 0.05 | /
COc1ccc(OCC(=O)N(C)C)cc1 | 0.55 | 2.82
O=C(NC1CCCC1)c1cc(-c2ccc(Cl)s2)nc2ccccc12 | -0.75 | 0.365
Cc1ccc(O)c(N/C=C/C(=O)C(C)(C)C)c1 | 1 | 1.67
CCOC(=O)c1ccc2nc(C(F)(F)F)cc(NC3CCN(Cc4ccccc4)CC3)c2c1 | -1.55 | 89.1
O=C(CCC1COc2ccccc2O1)Nc1ncccc1O (stereo not drawn) | -0.15 | -0.135
Cc1ccc(-c2nc3ncncn3c2Nc2cccc(C)c2)cc1 | 0.45 | 0.855
CN(Cc1ccccc1)C(=O)Cn1cnc2c(cnn2C)c1=O | 0.25 | /
Cc1noc2ncnc(N3CCC(C(=O)N4CCN(C(=O)c5ccco5)CC4)CC3)c12 | 0.5 | 0.25
Continuation:
SMILES | AID504770 | Ba CapD inh
CN1CCN(c2ccccc2C=Nc2ccc(C(C)(C)C)cc2)CC1 | -0.3 | -0.435
CC(=O)N1CCC(N(CCN2CCOCC2)C(=S)Nc2cc(F)cc(F)c2)CC1 | -0.8 | 0.155
O=c1[nH]cc(Sc2cccc3cccnc23)c(=O)[nH]1 | -0.1 | -0.555
O=C1C=C(c2ccccc2)C(=O)N1c1cccc(Cl)c1 | 0.35 | 0.675
COC(=O)c1ccc(CSc2nncn2-c2ccccc2)cc1 | -0.35 | /
COc1c(Cl)cc([N+](=O)[O-])c(OC)c1C(=O)O | / | -0.64
CC(=O)Nc1ccc(NC(=O)CN2Cc3ccccc3C2=O)cc1 | -0.25 | -1.5
O=C(c1ccccc1F)N1N=C(C(F)(F)F)CC1(O)c1ccc(Cl)cc1 (stereo not drawn) | / | 0.115
Cn1nc(-c2ccccc2)cc1-n1cnc2ccccc21 | 0.05 | -0.25
Cc1ccc(-c2nc3ncccc3o2)cc1NC(=O)c1ccc(F)cc1 | 0.85 | 0.82
C/C(N)=C(/C#N)C(=O)COc1ccc(C#N)cc1 | 0 | /
COc1cc(OC)cc(-c2nnc(SC(C)C(=O)c3ccccc3)o2)c1 (stereo not drawn) | 0.3 | /
CCC(C)N(Cc1c[nH]c2ccccc12)C(=S)Nc1cccc(C)c1 (stereo not drawn) | -0.2 | 0.345
COc1ccc(-c2cc3nc(C)cc(C)n3n2)cc1 | -0.2 | 7.42
CC(C)CN(CC(C)C)C(=O)C1CCN(S(=O)(=O)c2cccc3nsnc23)CC1 | -0.4 | -0.02
COc1cc2nc(/C=C/c3ccc4c(c3)OCO4)n(-c3ccc(C)cc3)c(=O)c2cc1OC | / | -0.59
CCN1CCc2nc(NC(=O)Cc3cn4ccsc4n3)sc2C1 | 0 | /
CC1=CC(=C2C(=O)NC(=O)NC2=O)C=C(C)O1 | 1.65 | /
C=CCN(c1ccccc1C(=O)NCC(=O)O)S(=O)(=O)c1ccccc1 | -0.4 | -0.785
O=S(=O)(c1cccc(-c2n[nH]c(=S)n2-c2ccccc2)c1)N1CCCC1 | -0.5 | /
O=C(NCC1(N2CCOCC2)CCCCC1)c1ccc(Cl)c(S(=O)(=O)NCc2ccco2)c1 | 0.7 | /
COc1ccc(C2CC(=O)n3c(nc4ccccc43)S2)cc1 (stereo not drawn) | 0.7 | -0.055
C=CCn1c(N2CCC(C(N)=O)CC2)nc2c1c(=O)n(C)c(=O)n2C | 0.2 | /
Cc1nnc(CSc2ccc(Cl)c(C(F)(F)F)c2)o1 | 2.15 | /
COCCNc1oc(COc2ccc(Br)cc2)nc1C#N | -1.15 | -0.045
S=c1[nH]nc(NCCc2ccc(Cl)cc2)s1 | -0.15 | -0.935
O=C(NCc1ccccn1)C(c1ccccc1)c1ccccc1 | 0.9 | -0.15
COP(=O)(CC(=O)c1ccccc1)CC(=O)c1ccccc1 | -0.55 | /
O=C(c1cc2ccccc2s1)N1CCC(O)(c2ccc(Cl)cc2)CC1 | -0.9 | 0.86
COC(=O)Cc1csc(N)n1 | 2.1 | -0.1
O=C1C(Nc2ccccc2)=CC(c2ccc(O)cc2)N1c1ccccc1 (stereo not drawn) | 0.55 | 0.2
COCCn1c(SCC(N)=O)nc2c(c1=O)SCC2 | 0.2 | -2.33
Cc1ccc2nc(NC(=O)C3SC(=NCCN4CCOCC4)C(C(=O)NCc4ccco4)=C3N)sc2c1 (stereo not drawn) | -0.1 | /
CCC1CCCCN1C(=O)c1cc(Cl)ccc1OC (stereo not drawn) | 0.05 | /
COC(=O)c1[nH]c2c(c1C)C(=O)CCC2 | 0.4 | -0.07
NC(=O)C1=CN(C(=O)Nc2ccccc2)CCC1C(F)(F)F (stereo not drawn) | 0.4 | 0.34
CCN(CC)c1cccc(OC(=O)/C=C/c2ccco2)c1 | -0.5 | -1.39
O=C1c2oc3ccc(F)cc3c(=O)c2C(c2cccc(O)c2)N1CCCN1CCOCC1 (stereo not drawn) | -0.45 | -0.62
CCCN=c1cc(-c2ccccc2)oc2ccc(C)cc12 | -0.2 | -0.83
Cc1noc(NS(=O)(=O)c2ccc(N3Cc4ccccc4C3=O)cc2)c1C | -0.55 | /
CCOc1ccc(-c2nonc2NC(=O)C(c2ccccc2)c2ccccc2)cc1 | 0.9 | -0.43

Rows were taken by chance; 0.37% or so of the library scored in one or more.
